Source: PubChem BioAssay (several laboratories)
ALR inh – blocks human ALR sulfhydryl oxidase activity; purified ALR, DTT oxidation, H2O2 HRP-luminol luminescence; 290,000 compounds, 3.8% hits; inhibition, % (no concentration beside the values); P55789;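 active means mean and each replicate at 75% or more; inconclusive means only one of the two met; inactive means neither met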;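 further: stock transfer was 7.5 nL into about 7.5 µL; 0% = neutral wells and 100% = wells with inactivated enzyme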
Target sequence (P55789 whole entry, looked up): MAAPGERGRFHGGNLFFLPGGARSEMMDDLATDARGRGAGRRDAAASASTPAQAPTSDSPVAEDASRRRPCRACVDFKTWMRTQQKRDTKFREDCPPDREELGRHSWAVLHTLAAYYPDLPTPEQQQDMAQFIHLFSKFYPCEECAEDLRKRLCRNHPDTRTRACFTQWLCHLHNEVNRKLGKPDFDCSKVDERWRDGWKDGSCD
Vif A3G – inhibitors of Vif binding to APOBEC3G peptide, primary screen, biochemical, TR-FRET, GST-Vif 1-94, biotin-A3G peptide, dose response retest (AID 1117319) | inhibition, %, or IC50 in µM where a hit was titrated | TR-FRET GST-Vif / biotin-A3G peptide binding; higher % means a stronger effect; test concentration not given here; strong numbers were not always called active | 260,000 compounds, 0.57% hits;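 active means above the screen mean plus three standard deviations and confirmed in dose response; inconclusive means results disagree or hit not tested in dose response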;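 further: Vif residues 1-94 fused to GST binding biotinylated APOBEC3G peptide 110-148; 0% = full assay without inhibitor and 100% = GST in place of GST-Vif; retest series ran down from 100 µM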
FGF22 binding – binders of recombinant human FGF22 by thermal shift. SYPRO orange fluorescence; percent of sucrose octasulfate shift, DMSO zero. calls only at 9.99 µM. 340,000 compounds, 1.5% hits;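 active means melting point raised past a set limit in the mean and every replicate; inconclusive means no clear call; three in four hits are not shown here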
Target sequence (Q9HCT0 whole entry, looked up): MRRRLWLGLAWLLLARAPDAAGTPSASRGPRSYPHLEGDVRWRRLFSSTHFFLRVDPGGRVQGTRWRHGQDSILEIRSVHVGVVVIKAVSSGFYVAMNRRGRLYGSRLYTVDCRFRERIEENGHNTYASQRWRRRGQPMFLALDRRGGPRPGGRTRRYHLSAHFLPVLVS
AF4-AF9 inh – MLL-AF4/AF9 protein interaction inhibition; AlphaScreen, biotin-AF4 peptide binding to FLAG-AF9; inhibition, % at 10 µM; 350,000 compounds, 0.47% hits;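 active means every replicate reaching a set inhibition limit, whatever the replicate mean, cut at about 25% in these data; inconclusive means mean inhibition reaches that limit but some replicates miss it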;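 further: 0% = plate neutral control median and 100% = total signal loss; the record names both 10 and 1 µM as test concentration; the first replicate is given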
HNF4A DNA FP – change in binding of human HNF4 alpha to DNA; P41235; HNF4a-FITC DNA binding, fluorescence polarization, 1 h; activity change, % at 10 µM; 360,000 compounds, 0.3% hits; AID 1224865; in the data active means activity change above about 30%, passing the limit was not always enough;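 further: controls were the assay level and a saturating level of protein; the project sought stronger binding though the title names inhibitors; some compounds called inactive have numbers as strong as hits; positive values seem to mean higher polarization but the record does not say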
Target sequence (P41235 whole entry, looked up): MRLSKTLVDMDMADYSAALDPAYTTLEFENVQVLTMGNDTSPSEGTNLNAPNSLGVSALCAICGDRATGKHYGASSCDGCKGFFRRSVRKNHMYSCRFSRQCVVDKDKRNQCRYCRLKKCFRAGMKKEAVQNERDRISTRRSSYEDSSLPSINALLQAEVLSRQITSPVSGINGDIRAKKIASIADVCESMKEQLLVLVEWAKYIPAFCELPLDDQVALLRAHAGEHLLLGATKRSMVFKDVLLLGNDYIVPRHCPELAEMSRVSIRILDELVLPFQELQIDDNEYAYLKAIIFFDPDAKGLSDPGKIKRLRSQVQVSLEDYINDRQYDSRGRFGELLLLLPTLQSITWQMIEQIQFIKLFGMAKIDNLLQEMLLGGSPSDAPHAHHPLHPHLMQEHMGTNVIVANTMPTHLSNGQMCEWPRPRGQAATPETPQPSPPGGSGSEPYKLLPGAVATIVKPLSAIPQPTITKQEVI
Ecoli growth – E. coli growth inhibition | AID 1053175 | OD600 absorbance (concentration not given with the values) | 330,000 compounds, 0.21% hits | Escherichia coli growth, OD600, 23 h; hits give low values;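 active means OD600 absorbance below the run mean of sample wells minus 3.6 SD, in any replicate, cut at about 0.56 in these data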;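 further: stock transfer was 300 nL into about 60 µL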
Ecoli rRNA inh – selective bacterial rRNA inhibition in E. coli | E. coli WT GFP vs humanized-ribosome RFP mutants, fluorescence, 24 h; hits give low values; DMSO median 0, no signal -100 | GFP signal change (wild-type ribosome), % (concentration not given with the values) | 350,000 compounds, 1.6% hits;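 active means significant combined selectivity score with lowered wild-type GFP, culture density cut under 30%, mutant RFP and density less affected; inactive means any of these conditions unmet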; further: one replicate is shown; some compounds called inactive have numbers as strong as hits
Ecoli rRNA inh OD600 – further read-out of Ecoli rRNA inh, marked with its call; OD600 change, %; measured here: OD600 growth;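 optical density of the mix in the first replicate; 0 = DMSO median and -100 = no signal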
Ecoli rRNA inh RFP – also measured in Ecoli rRNA inh; calls as there; RFP signal change, %; measured here: RFP humanized mutant strains;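 first replicate; 0 = DMSO median and -100 = no signal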
* hit, by the source's call; i = inactive; ? = inconclusive; . = no result given; & = joins results of further samples. These rows are one share of the data; rates above refer to the full screens.

SMILES | ALR inh | Vif A3G | FGF22 binding | AF4-AF9 inh | HNF4A DNA FP | Ecoli growth | Ecoli rRNA inh | Ecoli rRNA inh OD600 | Ecoli rRNA inh RFP
COC(=O)c1cn(NC(=O)c2cc([N+](=O)[O-])ccc2F)c(=O)c2ccccc12 | 96* | -8% | i | -2.7 | -2.6 | . | 16 | 5 | 5.2
COCC(C)n1c(C)cc(C(=O)COC(=O)c2n[nH]c3ccccc23)c1C (centres undefined) | . | 12% | . | . | 2.3 | 0.77 | . | . | .
CCOc1ccc(-n2c(N)c(C(=O)N3CCN(C)CC3)sc2=S)cc1 | 21 | 5% | i | -1.6 | -0.2 | 0.72 | 4 | 9 | 0.9
COCC(=O)N(C)C[C@H]1N[C@@](C)(C(=O)OC)[C@H]2C(=O)N(C)C(=O)[C@@H]12 | . | 0% | i | 1.6 | 5.0 | 0.71 | 10 | 14 | 2.1
CC(=O)Nc1ccc(Nc2ncnc3c2cnn3-c2ccc(C)cc2C)cc1 | -4 | 8% | . | . | -2.9 | 0.69 | . | . | .
CCOC(=O)c1ccc(NC(=O)CSc2nc3c(c(=O)n2-c2ccccc2OC)SCC3)cc1 | 99* | . | i | 4.6 | -2.1 | 0.8 | 3 | 8 | 0.8
COc1ccc2c3c([nH]c2c1)[C@@H](CO)N(Cc1nccs1)CC31CCN(Cc2cncnc2)CC1 | . | . | i | 2.3 | . | . | 2 | 2 | 2.0
C[C@@H]1CCCCO[C@@H](CN(C)C(=O)c2ccncc2)[C@H](C)CN([C@H](C)CO)C(=O)c2cc(NS(=O)(=O)c3ccc(F)cc3)ccc2O1 | . | . | i | 0.8 | . | . | 1 | 5 | 1.4
Cc1ccnc(NC(=O)c2ccccc2[N+](=O)[O-])c1 | 6 | 16% | . | . | -1.1 | 0.7 | . | . | .
COCC1CCCN(C(=O)c2ccc3oc(C(C)C)nc3c2)C1 (centres undefined) | -7 | . | i | -0.9 | -1.7 | 0.73 | 7 | 13 | -0.7
O=C(Cc1cccs1)Nc1ccc2c(c1)C(=O)OC2 | -3 | ? | i | 2.1 | -1.8 | 0.68 | 7 | 12 | 6.7
C[C@@H](NC(=O)[C@@H]1[C@@H](CO)[C@@H]2Cn3c(ccc(-c4ccncc4)c3=O)[C@@H]2N1C)c1ccccc1 | . | . | i | -23 | . | . | -1 | 1 | 0.2
Cc1ccc(-n2c(C3CC3c3ccc(Cl)cc3)n[nH]c2=S)cc1 (centres undefined) | 10 | 3% | i | -10 | 3.0 | 0.72 | -33* | -16* | 9.0*
O=C(COc1cccc2ccccc12)Nc1ccc(Cl)cc1C(=O)O | -2 | -8% | i | -2.6 | 2.3 | 0.69 | -54 | -76 | -14
COc1ccccc1C#Cc1ccc2c(c1)O[C@@H](CN(C)C)[C@@H](C)CN([C@@H](C)CO)S2(=O)=O | . | . | i | 10 | . | . | 5 | 6 | 4.8
COc1cc(C(=O)N2CCN(c3cccc(C)c3C)CC2)ccc1OCC(=O)N1CCOCC1 | -3 | 0% | i | 6.9 | -2.0 | 0.71 | 4 | 8 | 0.1
O=C(Nc1ccccc1Oc1cccnc1)C1CCCN(Cc2ccccc2O)C1 (centres undefined) | 18 | . | i | 2.8 | 16 | 0.69 | 3 | -2 | -1.0
NC(=O)Cc1ccc(C(=O)c2ccc(Cl)cc2)s1 | -5 | . | i | -0.1 | -7.6 | 0.64 | -24* | -19* | 6.3*
Cc1ccc(S(=O)(=O)Nc2ccc3c(c2)C(=O)N([C@H](C)CO)C[C@H](C)[C@@H](CN(C)C(=O)Nc2cccc4ccccc24)O3)cc1 | . | . | i | 6.6 | . | . | -14 | -3 | 4.5
C[C@@H]1CN([C@H](C)CO)C(=O)c2c(c3ccccc3n2C)-c2ccccc2CO[C@@H]1CN(C)C(=O)C1CC1 | . | . | i | -0.9 | . | . | 0 | -1 | -1.1
Cc1ccc(SCCC(=O)Nc2ccccc2C(=O)NC2CCCCC2)cc1 | -2 | 9% | i | -37 | -4.0 | 0.69 | 18 | 7 | -0.1
CCN(Cc1cc(=O)[nH]c2ccccc12)C(=O)c1ccc(C)cc1 | 49 | 1% | i | -73 | 1.5 | 0.65 | 4 | 3 | 2.0
CC(C)c1ccc(S(=O)(=O)/N=C2\C=C(NS(=O)(=O)c3ccccc3)C(=O)c3ccccc32)cc1 | 72 | . | i | -2.7 | 0.0 | 0.68 | -47 | -71 | -18
Cc1noc(C)c1NC(=O)N(C)C[C@@H]1OCCCC[C@@H](C)Oc2ccc(NC(=O)Nc3ccc(C(F)(F)F)cc3)cc2C(=O)N([C@H](C)CO)C[C@H]1C | . | . | i | 2.4 | . | . | 1 | -3 | 3.4
O=C(Nc1ccc(OCC(=O)N2CCOCC2)cc1)c1cc(F)c(F)cc1Cl | -4 | -5% | i | -1.7 | 0.1 | 0.67 | 11 | 5 | -1.2

Some of these compounds in order of molar mass, smallest number first.
SMILES | ALR inh | Vif A3G | FGF22 binding | AF4-AF9 inh | HNF4A DNA FP | Ecoli growth | Ecoli rRNA inh | Ecoli rRNA inh OD600 | Ecoli rRNA inh RFP
O=C(Nc1ccc(OCC(=O)N2CCOCC2)cc1)c1cc(F)c(F)cc1Cl | -4 | -5% | i | -1.7 | 0.1 | 0.67 | 11 | 5 | -1.2
C[C@@H](NC(=O)[C@@H]1[C@@H](CO)[C@@H]2Cn3c(ccc(-c4ccncc4)c3=O)[C@@H]2N1C)c1ccccc1 | . | . | i | -23 | . | . | -1 | 1 | 0.2
COc1ccc2c3c([nH]c2c1)[C@@H](CO)N(Cc1nccs1)CC31CCN(Cc2cncnc2)CC1 | . | . | i | 2.3 | . | . | 2 | 2 | 2.0

(more compounds)
SMILES | ALR inh | Vif A3G | FGF22 binding | AF4-AF9 inh | HNF4A DNA FP | Ecoli growth | Ecoli rRNA inh | Ecoli rRNA inh OD600 | Ecoli rRNA inh RFP
N#Cc1cccc(-c2ccc3c(c2)[C@@H]2[C@@H](CCN2C(=O)c2ccncc2)[C@@H](CO)N3)c1 | . | . | i | -4.1 | . | . | 19 | -8 | 5.0
COc1ccc(S(=O)(=O)CCC(=O)Nc2c(C)cccc2C)cc1 | -3 | -11% | i | 2.0 | 2.3 | 0.68 | 3 | 3 | -1.3
C[C@@H]1CN([C@H](C)CO)C(=O)c2cc(C#CC(C)(C)O)cnc2O[C@@H]1CN(C)C(=O)C1CC1 | . | 4% | i | -4.5&-4.4&-6.4 | 1.9 | . | 10&7 | 2&3 | -4.1&-1.2
Cc1cc(C)c(NC(=O)Nc2ccc3c(c2)OCO3)c(C)c1 | -4 | -9% | i | -2.2 | -0.4 | 0.66 | 15 | 18 | -1.6
CCn1nc(C)cc1C(=O)N1CCCC(N2CCN(c3cccc(Cl)c3)CC2)C1 (centres undefined) | 36 | 13% | i | -0.4 | -0.1 | . | -6 | -11 | 2.0
CC(C)(C)c1ccc(C(=O)Nc2ccc(C(=O)NCc3cccnc3)cc2)cc1 | 4 | . | i | 5.6 | -0.8 | 0.66 | -4 | -41 | 5.9
COc1ccc(C(=O)NC(=S)Nc2cccc(NC(=O)c3ccco3)c2)cc1[N+](=O)[O-] | 3 | ? | . | . | 0.6 | . | . | . | .
C(=C\c1ccccc1)/CN1CCN(C(c2cccs2)c2nnnn2C2CCCC2)CC1 (centres undefined) | . | . | i | 11 | -1.3 | . | -46 | -73 | -12
Cc1ccc(/C(O)=C2\C(=O)C(=O)N(CCc3c[nH]c4ccccc34)C2c2cccnc2)cc1 (centres undefined) | 60 | -16% | i | -0.8 | -1.8 | 0.68 | 0 | -3 | 0.7
CC(C)C(c1nnnn1C1CCCC1)N1c2ccccc2CC1C (centres undefined) | 99* | 6% | . | . | -15 | 0.64 | . | . | .
CSCCC1C(=O)OC2(C)CC(C)(C)NC(=S)N12 (centres undefined) | . | -4% | . | . | -1.2 | 0.68 | . | . | .
Cc1ccc(N2CC(C(=O)OCC(=O)c3ccc[nH]3)CC2=O)cc1 (centres undefined) | 2 | -1% | i | -0.6 | 1.7 | 0.63 | 3 | 4 | 2.9
C[C@@]12C(=O)N(CCc3c[nH]c4ccccc34)CC(=O)N1[C@H]1c3ccccc3OC[C@@H]1[C@@H]2c1ccccc1 | 0 | . | i | 3.1 | -1.5 | . | 7 | 8 | 10
O=CNC(n1cnc2c(N3CCOCC3)ncnc21)C(Cl)(Cl)Cl (centres undefined) | -1 | 1% | i | -0.7 | -4.2 | 0.67 | 2 | -3 | -0.9
CC(=O)c1c(OCC(=O)N(C)C2CCCCC2)ccc2c(C)cc(=O)oc12 | -4 | . | i | -3.5 | 1.2 | 0.7 | . | . | .
CC(OC(=O)c1nc(Cl)ccc1Cl)C(=O)NCc1ccccc1 (centres undefined) | . | -4% | i | -1.1 | 0.3 | . | . | . | .
Fc1ccc(CSc2ncnc3c2oc2ccccc23)cc1 | -30 | i | . | . | -0.1 | 0.69 | . | . | .
Cc1ccc(OCC(=O)Nc2cccnc2Cl)cc1C | -6 | . | i | -1.8 | -1.7 | 0.7 | 11 | 1 | 0.0
CC[C@]12c3[nH]c4cc(-c5ccco5)ccc4c3CCN1C(=O)[C@@H](CC(=O)NCCCOC)C[C@@H]2C(=O)N1CCN(C(=O)C2CC2)CC1 | . | 5% | i | 2.0 | 0.8 | 0.71 | 19 | 1 | 7.1
COC(=O)c1ccc(OC(=O)CCN2c3ccccc3Sc3ccccc32)cc1 | 8 | ? | . | . | -0.9 | 0.7 | . | . | .
Cc1c(C=C2C(=O)c3ccccc3C2=O)cc(C#N)n1C | -5 | -8% | . | . | . | 0.68 | . | . | .
O=C(CSCc1ccc(Cl)cc1)Nc1nccs1 | -2 | 0% | i | -2.1 | -2.2 | 0.71 | 1 | -6 | -3.7
N/C(=N\OC(=O)c1ccccc1F)c1cccc([N+](=O)[O-])c1 | -3 | . | i | 2.6 | -1.4 | . | 6 | 10 | 0.5
COc1ccc(N2C(=O)CC(N3CCN(c4nc5ccccc5s4)CC3)C2=O)cc1 (centres undefined) | -3 | 19% | . | . | 3.5 | 0.73 | -4 | -1 | 2.0
Cc1cc(C(=O)Nc2cccc([N+](=O)[O-])c2)c(C)o1 | 7 | 0% | i | 2.2 | 2.6 | 0.68 | 4 | 1 | 2.2

(list continues)
SMILES | ALR inh | Vif A3G | FGF22 binding | AF4-AF9 inh | HNF4A DNA FP | Ecoli growth | Ecoli rRNA inh | Ecoli rRNA inh OD600 | Ecoli rRNA inh RFP
CCc1cccc(CC)c1NC(=S)NCCc1c(C)[nH]c2ccccc12 | 11 | 0% | i | 15 | -5.2 | 0.72 | 2 | 1 | 15
CC(=O)NC1C(=O)N=C(SC(C)C(=O)Nc2cccc(Cl)c2)NC1=O (centres undefined) | 98* | -3% | i | -2.7 | -1.4 | 0.71 | 26 | 9 | 1.1
O=S(=O)(/C=C/c1ccccc1)NC1CCCCCCC1 | -10 | -4% | . | . | 1.7 | 0.62 | . | . | .
Cc1ccc(C)c(Cn2nnc3c(=O)[nH]c(C4CCCN(C(=O)C5CCCCC5)C4)nc32)c1 (centres undefined) | . | -4%&0% | . | . | -2.1 | 0.64 | . | . | .
C[C@@H]1CCCCO[C@H](CN(C)S(=O)(=O)c2ccccc2)[C@H](C)CN([C@@H](C)CO)C(=O)c2cc(NC(=O)Nc3ccc(C(F)(F)F)cc3)ccc2O1 | . | . | i | 0.8 | . | . | 2 | 4 | -0.1
COc1ccc2c3c([nH]c2c1)[C@H](CO)N(C(=O)Nc1ccc(F)cc1)CC31CCN(C(=O)Nc2c(C)noc2C)CC1 | . | . | i | -1.8 | . | . | -1 | -2 | 0.0
CC(C)(C)c1ccc(C(=O)NCC(=O)OCC(=O)NC(=O)NC2CCCC2)cc1 | 0 | -2% | i | -5.1 | -2.5 | 0.63 | -18 | -34 | -4.9
O=C(NC1CCCC1)C1CCN(S(=O)(=O)N2CCCCC2)CC1 | -9 | 2% | . | . | -3.1 | 0.65 | . | . | .
